Screening data (PubChem)
Marburg entry inh: inhibitors of Marburg virus binding or cell entry | Marburg virus pseudotyped entry inhibition, cell reporter; control for the full effect not named in the record; about a third of the inactives were read at about 46 µM | Potency, µM (doses to about 37.8 µM), without a hit: at the top dose activity change, negative = inhibition, actives largely listed as inhibitors | actives 1.8% (n = 300,000) | AID 540276; active = well fitted inhibition curve with a large enough effect; inconclusive = small, poorly fitted or top-dose-only effect, or effect the other way; inactive = flat fitted curve, though single readings scatter; tested in HEK293 cells; about a fifth of its hits are not listed in these tables; further: luciferase read-out
* = called active by the depositor; ? = inconclusive; & = joins results of further samples; [ ] = remark or other dose. On the % scale 0 is the no-effect control and ±100 the full control effect; potency means the concentration at half of the fitted maximal effect.

SMILES	Marburg entry inh
CC12C=C(/C=C/c3ccc(Br)cc3)C(C)(C1)C(c1ccc(Br)cc1)CC2=O (stereo not given)	-25.8%[14.2 µM]
C[C@H]1[C@@H]2O[C@H]2CCO[C@H]1c1cccc(Br)c1	-16.0%[14.2 µM]
CC(=O)OC[C@@H]1O[C@H](CCO/N=C(\C)CCN2CCCCc3nc(C)c(C)cc32)C=C[C@@H]1OC(C)=O	16.2%[14.2 µM]
COc1ccc(C=CNC(=O)Cc2ccc(OC)c(OC)c2)cc1	24.4%[14.2 µM]
CCOC(=O)c1cc2c(=O)n3cccc(C)c3nc2n(CCOC)c1=NC(=O)c1ccncc1	0.2%
O=C(N/N=C1\C[C@@H](O)[C@@H](O)[C@@H]2[C@@H]3C(=O)N(C4CCCCC4)C(=O)[C@@H]3CC[C@H]12)OCc1ccccc1	?
COC(=O)N(/C=C/c1ccc(OC)cc1)CCc1ccc(OC)c(OC)c1	2.8%[14.2 µM]
C=C(C)C(=O)OC[C@@H]1CN2[C@H](c3ccc(Br)cc3)[C@H](C)CC[C@H]2C(=O)O1	?
CC#CCN1C(=O)NC(c2ccccc2)C(C#N)=C1C (stereo not given)	23.2%[14.2 µM]
C[C@@H]1C=CCCO[C@]12C(=O)Nc1ccccc12	-43.8%[14.2 µM]
CC/C=C\CC[C@H](OC(=O)c1ccc(Br)cc1)C1=CCCCC1=O	?
COc1cccc(CO[C@H]2C=C[C@@H](c3ccccc3)O[C@H]2CN=[N+]=[N-])c1	-17.2%[14.2 µM]
C[C@@H]1Cc2cc3c(cc2C(c2ccc(N)cc2)=NN1)OCO3	?
COc1ccc(-c2nc3c(c4c2C[C@H](c2ccccc2)OC4)CN(C(=O)c2cccnc2)CC3)c(C)c1	29.8%&29.8%&29.8%[14.2 µM]
O=C(N/N=C1/C[C@@H](O)[C@@H](O)[C@@H]2[C@@H]3C(=O)N(Cc4ccc5c(c4)OCO5)C(=O)[C@H]3CC[C@H]12)OCc1ccccc1	-2.2%[14.2 µM]
C[C@@H]1CC[C@H]2C(=O)O[C@H](COc3ccc(C(C)(C)C)cc3)CN2[C@H]1c1ccc(Br)cc1	?
CCCC[C@]12Cc3cc(C#N)ccc3[C@H](O1)c1c(c3ccccc3oc1=O)O2	-8.1%[14.2 µM]
Cc1ccc(NC(=O)CSC2=C(C#N)[C@H](c3ccc4c(c3)OCO4)CC(=O)N2)cc1C	-6.3%
Cc1cc2c(c(=O)o1)[C@H]1O[C@](c3ccsc3)(Cc3cc(C#N)ccc31)O2	?
Cc1cc2c(nc1C)CCCN2CC(O)CN1CCN(C)CC1 (stereo not given)	17.7%[14.2 µM]

Two consecutive entries out of the list so far, quoted:
SMILES	Marburg entry inh
CC12C=C(/C=C/c3ccc(Br)cc3)C(C)(C1)C(c1ccc(Br)cc1)CC2=O (stereo not given)	-25.8%[14.2 µM]
C[C@H]1[C@@H]2O[C@H]2CCO[C@H]1c1cccc(Br)c1	-16.0%[14.2 µM]

More records:
SMILES	Marburg entry inh
C[C@H]1[C@@H](c2ccccc2)Oc2c(Cl)cccc2S(=O)(=O)N1Cc1cccc(Cl)c1	?
O=C(OCc1cn([C@H]2CN(C(=O)C3CCCCC3)[C@@H](c3ccccc3)C[C@H]2O)nn1)c1ccccc1	?
COc1cc2c(cc1OC)[C@@H]1O[C@](CCCCN3C(=O)c4ccccc4C3=O)(C2)OC2=C1C(=O)OC1(CCCCC1)C2	?
CCOC(=O)N/N=C1\C[C@@H](O)[C@@H](O)[C@@H]2[C@@H]3C(=O)N(c4cccc(Oc5ccccc5)c4)C(=O)[C@@H]3CC[C@H]12	?
COc1ccc(COC(=O)N/N=C2\C[C@@H](O)[C@@H](O)[C@@H]3[C@@H]4C(=O)N(C5CCCCC5)C(=O)[C@@H]4CC[C@@H]23)cc1	?
C[C@H]1Cc2c(COc3ccccc3)nc3c(c2CO1)CN(C(=O)C1CC1)CC3	?
CCCCCCCC1=Cc2ccccc2C(C(C(=O)OC)C(=O)OC)N1C(=O)OC (stereo not given)	-1.8%&-1.8%[14.2 µM]
O=C1c2ccccc2C(=O)N1CCCC[C@]12Cc3ccccc3[C@H](O1)c1c(c3ccccc3oc1=O)O2	-29.2%[14.2 µM]
CCCCc1nc2c(c3c1C[C@H](C)OC3)CN(S(=O)(=O)c1ccccc1C(=O)OC)CC2	21.6%&21.6%&21.6%[14.2 µM]
C=CCN1c2ccccc2[C@]23CCC(=O)N(CC4CC4)C2=NC(C(=O)OC)=C(C(=O)OC)[C@H]13	19.4%[14.2 µM]
Cc1cc(N2C(=O)C(=O)/C(=C(\O)c3ccc(F)cc3)[C@@H]2c2ccc(F)cc2)no1	2.2%
CN1C[C@@H](O)[C@@H](O)[C@@H](O)[C@@H]1CO	21.8%
O=C(/C=C\c1ccccc1)c1ccccc1O	5.8%[14.2 µM]
CSc1nnc2c(n1)C[C@H](c1ccccc1)[C@@H](C)[C@@H](C(=O)N1CCCC1)C2	13.6%[14.2 µM]
C#CCCCO/N=C1/C[C@@H](O)[C@@H](O)[C@@H]2[C@@H]3C(=O)N(Cc4ccc5c(c4)OCO5)C(=O)[C@H]3CC[C@@H]12	-6.7%[14.2 µM]
CCCCCC(=O)c1cc(CC(C(=O)OC)C(=O)OC)cc2cc(OC)c(OC)cc12	19.2%&19.2%[14.2 µM]
Cc1cc(C)n(C[C@@H]2CC(=O)N(c3cc(Cl)cc(Cl)c3)C2=O)n1	4.2%
COCCN1C(=O)NC(c2cccc(C(F)(F)F)c2)C(C(C)=O)=C1C (stereo not given)	11.2%[14.2 µM]
C=CCNC(=O)[C@H]1C=C(OC)C(=O)C[C@H](c2ccccc2)[C@H]1C	9.3%[14.2 µM]
CN=c1sc2ccccc2n1C[C@@H](O)COCc1ccco1	0.4%[46.1 µM]
CC(=O)N1C(=O)NC(C)=C(C#N)C1c1ccccc1 (stereo not given)	-10.4%[14.2 µM]
CC(CCC(=O)OC[C@H]1O[C@H](C#Cc2ccccc2)C=C[C@H]1Oc1ccc(C)cc1)=NOC[C@@H](O)COCc1ccco1	-9.6%[14.2 µM]
C/C(CCN1CCCc2nc(C)c(C)cc21)=N\O[C@H](C)c1cn([C@@H]2COC[C@H]2O)nn1	7.3%[14.2 µM]
CC(C)(C)N1C(=O)[C@H]2[C@H]3[C@H](O)[C@H](O)C/C(=N/OCc4ccccc4)[C@H]3CC[C@@H]2C1=O	-9.5%[14.2 µM]
O=C1[C@H]2[C@H]3[C@H](O)[C@H](O)C/C(=N\OCc4ccccc4)[C@@H]3CC[C@H]2C(=O)N1c1ccc(F)cc1F	?
O=C1NCCN2CCC[C@H]12	19.2%
CC(C)=CCC/C(C)=C/CO/N=C1\C[C@@H](O)[C@@H](O)[C@@H]2[C@@H]3C(=O)N(Cc4ccccc4)C(=O)[C@@H]3CC[C@H]12	3.0%[14.2 µM]
C[C@@H]1CN(C2CCN(S(=O)(=O)Cc3ccccc3)CC2)C[C@H](C)O1	-0.1%
CC(=O)N1CC2=C(CCCC2)C(C)CC12CCCCC2 (stereo not given)	-17.6%
C#CCCCON=C1C[C@@H](O)[C@H](O)[C@H]2[C@@H]3C(=O)N(C4CCCCC4)C(=O)[C@@H]3CC[C@H]12	?

5 of these compounds in another layout:
Compound | Marburg entry inh
Cc1cc2c(nc1C)CCCN2CC(O)CN1CCN(C)CC1 (stereo not given) | 17.7%[14.2 µM]
Cc1cc(C)n(C[C@@H]2CC(=O)N(c3cc(Cl)cc(Cl)c3)C2=O)n1 | 4.2%
CC(=O)OC[C@@H]1O[C@H](CCO/N=C(\C)CCN2CCCCc3nc(C)c(C)cc32)C=C[C@@H]1OC(C)=O | 16.2%[14.2 µM]
C=C(C)C(=O)OC[C@@H]1CN2[C@H](c3ccc(Br)cc3)[C@H](C)CC[C@H]2C(=O)O1 | ?
C[C@H]1[C@@H](c2ccccc2)Oc2c(Cl)cccc2S(=O)(=O)N1Cc1cccc(Cl)c1 | ?

Reformatted field by field: part of the list above.
C[C@@H]1CC[C@H]2C(=O)O[C@H](COc3ccc(C(C)(C)C)cc3)CN2[C@H]1c1ccc(Br)cc1
  Marburg entry inh: ?
CCCC[C@]12Cc3cc(C#N)ccc3[C@H](O1)c1c(c3ccccc3oc1=O)O2
  Marburg entry inh: -8.1%[14.2 µM]

The results go on.
SMILES	Marburg entry inh
COC(=O)[C@@H]1CC[C@H](C)[C@@H](c2ccc(C)cc2)N1C(=O)c1ccc(/C=N\OC[C@@H](O)[C@H]2O[C@H]3OC(C)(C)O[C@H]3[C@@H]2O)cc1	27.8%[14.2 µM]
COC(=O)C12CC3=CCC4C(=O)N(c5ccccc5)C(=O)C4C3Cc3ccccc3[C@H]1CNC2=O (stereo not given in full)	5.1%[14.2 µM]
COC(=O)[C@@H]1C[C@@]23C(=NN=C(SC)C2Nc2ccccc23)N1C(C)=O (stereo not given in full)	-22.9%[14.2 µM]
COCC(=O)N1CCc2nc(-c3ccccc3)c3c(c2C1)CO[C@@H](C)C3	?
CCOC(=O)c1c(C(=O)OCC)c2c3ccccc3cc(C)n2c1C(=O)OC	1.5%[14.2 µM]
COc1cccc([C@@H]2Oc3ccc(Br)cc3C(=O)[C@@H]2OC(=O)Nc2cc(OC)c(OC)c(OC)c2)c1	5.2%[14.2 µM]
COC(=O)C1=C(C)N(Cc2ccccc2)C(=NCCc2ccccn2)NC1c1cccc(C(F)(F)F)c1 (stereo not given)	?
COc1cc([C@H](O)C(=O)O)ccc1O	7.5%
C=CCN1C(=S)N=NC1c1ccccc1 (stereo not given)	8.0%
CCCC[C@@H]1CN2[C@@H](CC[C@H](C)[C@@H]2c2ccc(Br)cc2)C(=O)O1	?
O=[N+]([O-])c1cccc(COc2ccc(CO)cc2)c1	?
CCCCc1nc(NC[C@H]2CCCO2)c(C#N)c2c1COC(C)(C)C2	-12.7%
O=C1NC(=O)[C@H](c2cn(-c3ccccc3)nc2-c2ccc(F)cc2)N1	1.6%
CCOc1ccc(C[C@H]2CC(=O)NC2=O)cc1	0.4%
CCCCCC(=O)N1C[C@H](n2cc(-c3ccc(F)cc3)nn2)[C@@H](O)C[C@H]1c1ccc(OC)cc1	?
CC(CCN1CCCCc2nc(C)c(C)cc21)=NO[C@H](C)c1cn([C@H](CO)Cc2ccccc2)nn1	?
CCOC(=O)OC[C@H]1O[C@H](C#Cc2ccc(C)cc2C)C=C[C@H]1OC(=O)OCC	4.4%[14.2 µM]
CCOC(=O)N/N=C1\C[C@@H](O)[C@@H](O)[C@@H]2[C@@H]3C(=O)N(C4CCCCC4)C(=O)[C@@H]3CC[C@@H]12	19.7%[14.2 µM]
COC[C@H]1O[C@H](c2ccccc2)C=C[C@H]1OCc1cccc(Br)c1	-14.9%[14.2 µM]
COC(=O)C/C=C\[C@H](C)[C@@H](OCc1ccccc1Br)C(C)C	14.1%[14.2 µM]
N#Cc1ccc2c(c1)C[C@]1(CCCCN3C(=O)c4ccccc4C3=O)Oc3c(c(=O)oc4ccc(F)cc34)[C@@H]2O1	-26.1%[14.2 µM]
CC(C)CO/N=C1/C[C@@H](O)[C@@H](O)[C@@H]2[C@@H]3C(=O)N(C4CCCCC4)C(=O)[C@H]3CC[C@H]12	-20.1%[14.2 µM]
CCOC(=O)C1(C(=O)OCC)CC2=C(C=CC3=C(C=C2)CC(C(=O)OCC)(C(=O)OCC)C3)C1	6.2%[14.2 µM]
C#CCCCO/N=C1/C[C@@H](O)[C@@H](O)[C@@H]2[C@@H]3C(=O)N(C[C@@H]4CCCO4)C(=O)[C@H]3CC[C@@H]12	3.5%[14.2 µM]
O=C1CCCC=C1C(O)COCc1ccccc1 (stereo not given)	3.2%[14.2 µM]
COC(=O)c1ccc(CN2C(=O)[C@]3(OCCC=C[C@@H]3C)c3ccccc32)cc1	13.3%[14.2 µM]
CCOc1ccc(CCNC(=O)[C@@H](O)c2ccccc2)cc1	14.4%
CC(=O)OC[C@H]1O[C@H](C#Cc2ccc(F)cc2F)C=C[C@@H]1OC(C)=O	?
CCCOc1ccc(/C(O)=C2\C(=O)C(=O)N(CCN(C)C)[C@H]2c2ccncc2)cc1	20.1%
CC1(C)O[C@@H](C(O)(c2cc(C(F)(F)F)cc(C(F)(F)F)c2)c2cc(C(F)(F)F)cc(C(F)(F)F)c2)[C@H](C(O)(c2cc(C(F)(F)F)cc(C(F)(F)F)c2)c2cc(C(F)(F)F)cc(C(F)(F)F)c2)O1	-9.5%[14.2 µM]
Cc1cc2c(c(=O)n1Cc1ccccc1)[C@H]1O[C@](c3ccsc3)(Cc3cc(C#N)ccc31)O2	0.6%[14.2 µM]
CCOC(=O)OC[C@H]1O[C@H](C#Cc2ccc(C(C)(C)C)cc2)C=C[C@@H]1OC(=O)OCC	?
CC(C)(C)Nc1oc(-c2ccccc2)nc1C=Cc1ccccc1	3.7%[14.2 µM]
CSc1ccn(CC2CCC(Cl)CC2)c(=O)n1 (stereo not given)	14.2%
C=CCOCCC=C1c2ccccc2[C@@H](OC)[C@@H]1C	-8.2%[14.2 µM]
O=c1cc(O)cc(/C=C\c2ccc(O)c(O)c2)o1	15.0%
NC(=S)NCCC[C@@H](N)C(=O)O	?
COC(=O)C[C@H]1c2ccccc2[C@@H]2C(=C[C@@H](C)[C@H]3C(=O)NC(=O)[C@H]32)N1C(=O)OC	2.7%[14.2 µM]
O=C(O)C[C@H](C(=O)OC[C@H]1CCCO1)N1CCOCC1	20.0%
CC(C)=NOCc1ccc(-c2cn([C@@H]3COC[C@@H]3O)nn2)cc1	14.6%&14.6%[14.2 µM]
COCCN1C(=O)NC(c2ccc(Br)cc2)C(C(C)=O)=C1C (stereo not given)	63.1%[14.2 µM]
COc1ccc([C@H]2C(C#N)=C(SC)NC3=C2C(=O)CC(C)(C)C3)cc1	-8.3%
CCCCn1c(C)cc2c(c1=O)[C@H]1O[C@](c3ccsc3)(Cc3ccccc31)O2	?
CCc1cc2c(nc1CC)CCN(CCC(C)=NO[C@@H](C)CN1CCCc3nc(C)c(C)cc31)C2	-24.3%[14.2 µM]
CCCC[C@H]1CN2[C@@H](CC[C@@H](C)[C@@H]2c2ccc(Br)cc2)C(=O)O1	1.8%[14.2 µM]

Not all compounds are listed; rates above refer to the full screens.
